Bioassay records from PubChem BioAssay.
gsp agonist: qHTS for Agonist of gsp, the Etiologic Mutation Responsible for Fibrous Dysplasia/McCune-Albright Syndrome: qHTS. Potency, µM (top dose mostly 76.9 µM), for the others: top-dose activation (cAMP increase), hits mostly activators. gsp mutant cells, cAMP HTRF, 30 min; control for the full effect not named in the record. 340,000 tested, 0.13% active; active = well fitted activation curve with a large enough effect; inconclusive = small, poorly fitted or top-dose-only effect, or another doubt; inactive = no such curve, though single readings can be large or run the other way; cell line not stated here;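 also: phosphodiesterase inhibitor Ro 20-1724 added with compounds to block cAMP breakdown; potency is read from the fitted curve at half-maximal effect; nearly all actives have a fitted effect of over 60% in size; about a fifth of the inactives were tested at one dose only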
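Cells in DMEM/10% FBS with G418 were pretreated with compounds in DMSO plus […] (300 uM stock) for 30 min at 37C. cAMP was measured by HTRF (cAMP-d2 plus anti-cAMP antibody-K) after 30 min at room temperature.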
TRPML1 inh: qHTS for Inhibitors of the Human Mucolipin Transient Receptor Potential 1 (TRPML1) | Mucolipin-1 (Homo sapiens), Q9GZU1 | TRPML1-inducible cells, Ca2+ dye fluorescence, FDSS; hits give low values; inhibition of EC80 agonist-evoked calcium signal | activity change, negative = inhibition, % (no concentration beside the values) | 390,000 tested, 0.02% active | AID 624415, 2012; in the data active means activity change below about -50%; inconclusive means about -30% to -50%; inactive means above about -30%;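 also: stimulus is agonist 54-4 at its EC80 concentration; % is scaled to controls: 0 for no effect and ±100 for the full control effect; compound concentration not given in the record; the text of the record puts the active cut at -80%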
Target sequence (Q9GZU1 whole entry, looked up): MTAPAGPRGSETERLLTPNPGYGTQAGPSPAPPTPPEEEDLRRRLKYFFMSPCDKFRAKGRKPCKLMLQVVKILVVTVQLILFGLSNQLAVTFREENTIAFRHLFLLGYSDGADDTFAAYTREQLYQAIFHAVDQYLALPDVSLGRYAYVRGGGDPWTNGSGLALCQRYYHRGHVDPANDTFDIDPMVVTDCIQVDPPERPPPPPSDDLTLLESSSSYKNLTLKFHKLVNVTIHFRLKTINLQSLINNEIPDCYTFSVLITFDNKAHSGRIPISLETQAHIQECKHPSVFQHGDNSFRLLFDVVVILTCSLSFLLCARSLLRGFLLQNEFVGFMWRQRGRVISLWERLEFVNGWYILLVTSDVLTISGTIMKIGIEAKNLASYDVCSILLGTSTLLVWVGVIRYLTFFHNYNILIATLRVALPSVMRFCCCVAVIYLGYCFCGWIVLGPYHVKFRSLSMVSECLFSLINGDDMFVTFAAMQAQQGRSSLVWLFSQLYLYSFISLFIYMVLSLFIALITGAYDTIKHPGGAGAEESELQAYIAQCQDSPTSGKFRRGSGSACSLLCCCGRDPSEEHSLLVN
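TRPML1-DL cells, Tet-induced overnight (~16 h, 37 °C) at 1,500 cells/well, were loaded with Ca8 no-wash dye plus quencher for 45-90 min at room temperature. Compounds were pinned during FDSS kinetic reading; agonist 54-4 at EC80 (4 uM final) then added.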
gsp antag: qHTS for Antagonists of gsp, the Etiologic Mutation Responsible for Fibrous Dysplasia/McCune-Albright Syndrome: qHTS; gsp-mutant cells, cAMP HTRF, 30 min; control for the full effect not named in the record; Potency, µM (titrated, usually from 76.9 µM), for the others: at the top dose activity change, negative = inhibition, actives largely listed as inhibitors; 340,000 tested, 0.4% active; AID 624288, 2012; active = falling curve of any shape with a large fitted effect; inconclusive = falling curve, mostly with a smaller effect; inactive = flat or rising curve; cell line not stated here;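 also: intracellular cAMP measured with PDE inhibitor Ro 20-1724 present during compound exposure; potency is read from the fitted curve at half-maximal effect; % is scaled to controls: 0 for no effect and ±100 for the full control effect; nearly all actives have a fitted effect of over 65% in size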
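HTRF cAMP read-out (cAMP-d2 plus anti-cAMP antibody-K in lysis buffer, 30 min RT). Before lysis, cells are exposed to compounds with […] for 30 min at 37C in DPBS containing Ca/Mg, BSA and Tween 20.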
ClpP mod: qHTS Assay for Activators of ClpP. Potency, µM (series often up to 57.5 µM), for inactives: at the top dose activity change, negative = active. 340,000 tested, 1.9% active. AID 651965, 2013. purified B. subtilis ClpP, FRET peptide cleavage, 20 min; active = well fitted falling curve with a large enough effect; inconclusive = small, poorly fitted or top-dose-only effect; inactive = no such curve, though single readings can be large or run the other way; also: potency is read from the fitted curve at half-maximal effect; the source files actives as falling curves though it sought activators and does not explain the sign; nearly all actives have a fitted effect of over 65% in size; many hits overshoot -100%
Target sequence (P80244 whole entry, looked up): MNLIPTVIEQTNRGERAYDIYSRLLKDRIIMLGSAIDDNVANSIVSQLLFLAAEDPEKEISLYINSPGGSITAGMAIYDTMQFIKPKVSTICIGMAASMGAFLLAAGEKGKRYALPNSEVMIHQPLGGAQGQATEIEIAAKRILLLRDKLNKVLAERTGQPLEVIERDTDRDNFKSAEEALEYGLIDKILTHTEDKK
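FRET quenching reversal measured ClpP activation: 10 microg/mL B. subtilis ClpP at pH 8 with the FRET-FV decapeptide, read at 430 nm after 320 nm excitation. The 20-min minus 0-min signal was scaled between DMSO/no-enzyme wells and ADEP (5.8 microM final).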
Menin-MLL FL inh: qHTS Assay for Inhibitors Targeting the Menin-MLL Interaction in MLL Related Leukemias: Competition With Fluorescein Labeled MLL-derived Peptide; Fluorescence polarization, fluorescein-MLL peptide displacement from menin; FP activity change, % at 61.4 µM; 290,000 tested, under 10 active; AID 1766, 2009; inconclusive = falling polarisation curve, or a change in total fluorescence; inactive = total fluorescence flat and polarisation flat or rising; no compound was filed as active; the % refers to the polarisation; negative = inhibition;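 also: % of control where 0% means no effect; inhibitors lower the polarisation; unlabelled MLL peptide was the positive control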
TRPML1 agonist: qHTS for Agonists of the Human Mucolipin Transient Receptor Potential 1 (TRPML1); Mucolipin-1 (Homo sapiens), Q9GZU1; TRPML1-expressing cells, Ca2+ dye fluorescence, FDSS; host cell line not named in the record; reference of the full effect not given here; activation, % (concentration not given with the values); 410,000 tested, 0.12% active; AID 624414, 2012; in the data active = activation above about 50%; inconclusive = about 30% to 50%; inactive = below about 30%; also: 0% is about no effect; the text of the record puts the active cut at 80%
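Tetracycline-induced TRPML1-DL cells are seeded and incubated overnight before loading with a no-wash Ca2+ dye and quencher. Agonist activity is taken from the 110 s fluorescence read following compound pin-transfer on an FDSS, before EC80 54-4 challenge.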
Numbers without * were called inactive; ? = inconclusive; . = no result given; & = joins results of further samples; [ ] = remark or other dose.

SMILES | gsp agonist | TRPML1 inh | gsp antag | ClpP mod | Menin-MLL FL inh | TRPML1 agonist
Cc1cc(NS(=O)(=O)c2ccc(NC(=O)CCc3ccccc3)cc2)no1 | -21% | -10 | 10% | 1.6% | -0.7 | -0.8
CC(SCc1ccccc1)C(=O)NN=C1CCN(C)CC1 (stereo unspecified) | -15% | -11 | 7% | -2.4% | -0.1 | -0.2
O=C(CN1C(=O)c2ccccc2S1(=O)=O)N1CCCCC1 | ? | -12 | 5% | . | . | -0.1
COc1cccc(NC(=O)C2CC2)c1 | . | -3 | 6% | -0.2% | . | -0.3
Cc1c(C)n(Cc2ccc(Cl)cc2)c2ccc(C(=O)N3CCN(c4ccccc4F)CC3)cc12 | . | -12 | . | ? | . | 0.6
CSc1ccc(/C=N/n2nnnc2N)cc1 | -32% | 2 | 10% | ? | -0.4 | -0.4
CCOc1ccc(CCNC(=O)c2cc3c(=O)n(CC)c4ccccc4c3s2)cc1OCC | . | -1 | . | -7.7% | . | -0.6
Cc1ccccc1-c1ccc2c(c1)O[C@@H](CN(C)Cc1ccc(C(=O)O)cc1)[C@@H](C)CN([C@H](C)CO)S2(=O)=O | 9% | 2 | . | 1.8% | . | -0.5
Cc1cccc(-c2noc(CN(C(=O)c3c(-c4ccccc4Cl)noc3C)C(C)C)n2)c1 | -15% | 33 | -26% | 0.7% | 0.1 | -0.1
Cc1cc(C)cc(NC(=O)CN2C(=O)COc3ccc(S(=O)(=O)N4CCCC4)cc32)c1 | -17% | 10 | 5% | 1.0% | -0.1 | -0.3
COc1cc(Cl)c(C)cc1NC(=O)c1c(C)oc2nc(C)nc(N3CCCC3)c12 | . | 14 | . | 0.6% | . | 1.9
COC(=O)CSc1nnc(C)n1-c1cccc(C#N)c1 | -11% | -2 | 2% | -3.2% | 3.9 | 0.6
Oc1ccc(/C=N/n2c(-c3ccccc3)n[nH]c2=S)cc1Br | 13% | . | ? | 0.7% | -5.3 | .
O=C(CCCc1nc(-c2ccc(Cl)cc2)no1)NC1CCCC1 | -46%[inhibitor] | 18 | -18% | -0.9% | . | 0.0
NCCCCCc1nnc(SCc2ccc(Cl)cc2Cl)o1 | 0% | -2 | 14% | -2.8% | -1.2 | 1.1
COc1cccc(C(=O)N(Cc2cccs2)C2CCS(=O)(=O)C2)c1 (stereo unspecified) | 0%[15.4 µM] | 10 | 3% | . | 0.5 | -0.3
Cc1ccc(Cl)cc1N1CCN(c2nc3ccccc3c3nc(-c4cccnc4)nn23)CC1 | . | -24 | . | -1.2% | . | -0.1
O=C1NC(=O)C(c2ccc(Cl)cc2Cl)N1 (stereo unspecified) | -32%[inhibitor] | 7 | 5% | 1.1% | . | -0.5
Cn1nnc(NC(=S)NC(=O)c2ccco2)n1 | 24% | 21 | 6% | -3.5% | -3.9 | -0.1
Cc1nc2ccc3nc(NC(=O)C4COc5ccccc5O4)sc3c2s1 (stereo unspecified) | 18% | 1 | ? | 13%&11% | 3.2 | -1.3&0.0

Retrieved one by one from the list above (4):
SMILES | gsp agonist | TRPML1 inh | gsp antag | ClpP mod | Menin-MLL FL inh | TRPML1 agonist
O=C1NC(=O)C(c2ccc(Cl)cc2Cl)N1 (stereo unspecified) | -32%[inhibitor] | 7 | 5% | 1.1% | . | -0.5
COC(=O)CSc1nnc(C)n1-c1cccc(C#N)c1 | -11% | -2 | 2% | -3.2% | 3.9 | 0.6
Cn1nnc(NC(=S)NC(=O)c2ccco2)n1 | 24% | 21 | 6% | -3.5% | -3.9 | -0.1
Cc1ccc(Cl)cc1N1CCN(c2nc3ccccc3c3nc(-c4cccnc4)nn23)CC1 | . | -24 | . | -1.2% | . | -0.1

The listing continues.
SMILES | gsp agonist | TRPML1 inh | gsp antag | ClpP mod | Menin-MLL FL inh | TRPML1 agonist
CCOc1ccccc1NC(=O)c1c(NC(=O)COc2ccccc2)sc2c1CCCC2 | . | -8 | . | -22% | . | -0.7
CCOC(=O)c1cc(CC)sc1/N=C/c1c(O)ccc2ccccc12 | 23%[15.4 µM] | 3 | 3% | 2.5% | 15 | 0.3
O=C(CSc1nnc(C2CC2)n1CC1CCCO1)Nc1ccccc1Cl (stereo unspecified) | -11%[15.4 µM] | -1 | 4% | . | -2.0 | -0.2
C=CCOc1c2ccc(C(=O)N(CC)c3ccc(OC)cc3)cc2nn1C | 1% | -1 | 3% | ? | 1.5 | 0.4
COc1cccc(NC(=O)c2ccc(-c3nc(COc4ccccc4)c(C)o3)cc2)c1 | . | -2 | . | ? | . | 2.2
CC1CCN(c2nc3ccccc3nc2C(F)(F)F)CC1 | . | 10 | . | 0.6% | . | -0.7
Cc1c(C(=O)/C=C/N(C)C)nnn1-c1ccc(Cl)c(Cl)c1 | -6% | -10 | -2% | -1.8% | 11 | 0.0
COc1cccc(CC(NC(C)=O)C(=O)NC2CCN(S(=O)(=O)c3ccc(NC(C)=O)cc3)CC2)c1OC (stereo unspecified) | -6% | -10 | 5% | . | 0.3 | -0.1
CC(=O)Nc1cccc(NS(=O)(=O)c2ccc3c(c2)CCC(=O)N3)c1 | ? | 11 | . | -0.8% | . | -0.4
COc1ccc(/C=C\c2nc(O)c([N+](=O)[O-])c(=O)[nH]2)cc1O | -10%[15.4 µM] | -14 | -1% | -0.3% | -0.6 | -0.8
Cc1ccc(C)c(NC(=O)C2CCCN(S(=O)(=O)c3cn(C)cn3)C2)c1 (stereo unspecified) | . | -21 | . | 0.3% | . | 1.1
COc1ccc(NC(=O)COC(=O)c2ccccc2SCC(=O)N2CCCC2)cc1 | -15%[15.4 µM] | 7 | -8% | . | . | 1.2
COc1cccc(C(=O)N(Cc2ccco2)c2ccccn2)c1 | . | 2 | . | -1.2% | . | 0.2
CCCCN1CC(C(=O)NCc2ccc(C)cc2)CC1=O (stereo unspecified) | -26% | -20 | 8% | 20µM* | 0.8 | -0.2
CN(C)S(=O)(=O)c1ccc(Cl)c(C(=O)NCc2ccco2)c1 | 3% | -11 | 15% | 0.0% | 1.5 | 0.5
CCOC(=O)c1sc(NC(=O)CCN2CCN(C)CC2)c(C(=O)OCC)c1C | 2%[15.4 µM] | 10 | -13% | -0.4% | 3.4 | 0.0
Cc1ccc(S(=O)(=O)N2CCOCC2)cc1NC(=O)CNC1CCCC1 | 5%[15.4 µM] | -12 | 5% | . | 2.2 | 0.3
CC(=O)c1sc2c(c1C)c(=O)n(-c1ccc(Cl)cc1)c(=O)n2Cc1ccc(Cl)cc1 | . | 15 | . | 1.6% | . | 1.0
O=S(=O)(c1ccc(Br)cc1)N1CCC(c2nc3ccccc3[nH]2)CC1 | 4% | 28 | -11% | . | . | 3.8
Nc1nc(Br)c2c(F)cccc2c1-c1ccc(F)cc1 | 3% | 12 | 9% | -6.8% | 5.0 | 3.7
CCN(C(=O)c1ccc2c(=O)n3c(nc2c1)CCCCC3)c1cc(C)ccc1C | . | 12 | . | 1.8% | . | 0.9
CCN(NC(=O)C(O)(c1ccc(F)cc1)c1ccc(F)cc1)C(=O)c1ccccc1 | -40%[inhibitor] | 8 | 13% | -1.0% | 0.8 | 0.4
COC(=O)c1ccccc1NC(=O)c1ccc(-c2ccc(Br)cc2)o1 | -3% | -14 | 9% | -23% | -2.1 | -0.6
CNC(=S)N(Cc1cc2cc(OC)c(OC)cc2[nH]c1=O)C1CCCC1 | -8% | 26 | -4% | 4.4% | 0.1 | 1.6
C#CCOCCOCCOCCNc1nc(N2CCN(C(=O)[C@H]([C@@H](C)CC)n3cc([C@@H](N)Cc4ccc(O)cc4)nn3)CC2)nc(N2CCN(C(=O)[C@H]([C@@H](C)CC)n3cc([C@@H](N)Cc4ccc(O)cc4)nn3)CC2)n1 | ? | 9 | 7% | 0.9% | 1.5 | -0.7
CCCCNS(=O)(=O)c1ccc(NC(=O)Cc2ccc(OC)cc2)cc1 | -32%[inhibitor] | 20 | 4% | . | -1.6 | 0.4
CCc1ccc(NC(=O)Cn2c(=O)n(-c3cc(OC)c(OC)c(OC)c3)c(=O)c3ccccc32)cc1 | . | 3 | . | 0.1% | . | -0.5
COC(=O)c1sc(S(=O)(=O)N2CCN(c3ccccc3F)CC2)c(C(=O)OC)c1C | ? | 2 | 1% | . | . | 0.4
COc1ccccc1OCc1ccc(C(=O)N2CCN3CCCC3C2)cc1 (stereo unspecified) | -23% | 4 | 3% | -1.2% | 7.7 | -0.6
CCOP(=O)(OCC)C(C)(C)NC(=O)Nc1ccc(Cl)c(Cl)c1 | -7%[15.4 µM] | -6 | -7% | -1.6% | 1.5 | 1.4
Cc1cccc(C)c1NC(=S)N/N=C/c1ccc(C(=O)O)cc1 | -8%[15.4 µM] | -14 | 9% | . | 3.4 | 0.9
O=C(Nc1cccc(Br)c1)c1ccc2snnc2c1 | ? | 3 | -24% | 1.8% | 1.6 | -0.1
O=C(COc1cccnc1[N+](=O)[O-])N1CCc2ccccc2C1 | 0% | 3 | 3% | . | -1.5 | -0.4
Cc1ccnc(NC(=O)c2cc3cc(F)ccc3s2)c1 | ? | 4 | 5% | . | -2.9 | 2.8
O=C(NCC(=O)N(Cc1ccccc1)C(C(=O)NCC1CCCO1)c1ccccc1)c1cccs1 (stereo unspecified) | 11% | -8 | -15% | 0.0% | 1.2 | 0.0
CCC(=O)c1c(NCCc2ccccc2)cc(C)oc1=O | ? | 13 | 0% | -3.6% | 2.6 | 4.4
COc1ccccc1/C=C1\SC(=S)N(CCC(=O)NNC(=O)c2ccccc2O)C1=O | -29% | 15 | ? | -2.6% | 0.6 | 1.7
COc1ccc(/C=N/Nc2nonc2N)cc1OC | 0% | 4 | 0% | 0.1% | 5.6 | -0.3
Cc1ccc(S(=O)(=O)N2CCN(C(=O)CC(C)C)CC2)cc1 | -17% | 15 | 7% | . | 2.1 | 0.3
CCOC(=O)[C@@H]1[C@H]2COc3ccccc3[C@@H]2N2C(=O)N(c3cccc(Cl)c3)C(=O)[C@@]12C | . | 10 | -25% | -1.5% | -1.6 | -0.5
COc1ccc(C(=O)Nc2ccc(S(=O)(=O)N3CCCC3)cc2)cc1[N+](=O)[O-] | -1%[15.4 µM] | -12 | -16% | 1.0% | -3.8 | -0.4

This is a random part of the collection, and some 2.1% of all compounds hit somewhere here.
